Bioassay records (PubChem BioAssay)
Methyltransferases: Primary Screen for Target Class Profiling of Small Molecule Inhibitors of Methyltransferases; 3.9% of 25,000 active; purified enzyme, MTase-Glo SAH luminescence; active compounds read low; calls only at 40 µM; active = -50% or lower on at least one of six enzymes; inconclusive = the cases between; inactive = as a rule above -30% on all six;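 further: enzymes were COMT GAMT GNMT HNMT NNMT and PNMT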
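Each enzyme was reacted with SAM and its substrate, with compounds tested once at 40 uM; SAH formed was read by MTase-Glo luminescence.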
Calls only; i = inactive; ? = inconclusive; + = active, no number. On the % scale 0 is the no-effect control and ±100 the full control effect. An excerpt; count on the stated rates, not on these rows.

SMILES	Methyltransferases
COC(=O)CCNC(=O)N1Cc2ccccc2-n2cccc2C1c1ccccc1C (stereo unspecified)	i
CC(=O)O[C@H]1CN2CCC1CC2	?
CC(=O)c1cccc(NC(=O)OC[C@H]2C[C@@H]3CCN2C[C@@H]3c2cc(C3CCCC3)nc(C)n2)c1	i
C/C=C(/C)C1C=CC2CC(C)CC(C)C2C1/C(O)=C1\C(=O)NC(CC(C)(O)C(=O)O)C1=O (stereo unspecified)	i
C=C[C@H]1CN2CC[C@H]1C[C@@H]2CNS(=O)(=O)c1ccc(Cl)cc1	i
Cc1ccc2c(c1)[C@H]1CN(C)CC[C@H]1N2C(=O)CSc1nnnn1-c1ccc(Cl)cc1	i
O=C(NC1CCCC1)N1Cc2ccccc2-n2cccc2C1c1ccc(F)cc1 (stereo unspecified)	i
CCC1c2cccn2-c2ccccc2CN1C(=O)Nc1ccc(Cl)cc1 (stereo unspecified)	i
C/C=C(\C)C(O)C(C)/C=C(C)/C=C/C/C(C)=C/Cc1nc(OC)c(OC)c(O[C@@H]2O[C@@H](C)[C@H](O)[C@@H](O)[C@H]2O)c1C (stereo partly specified)	i
COc1ccc2c(c1)C13CCCCC1C(C2)N(C)CC3 (stereo unspecified)	?
Cc1cc(NC(=O)N2Cc3ccccc3-n3cccc3C2c2cccs2)ccc1Br (stereo unspecified)	i
CCOc1ccc(C2c3cccn3-c3ccccc3CN2C(=O)NCc2cccc(OC)c2)cc1 (stereo unspecified)	i
NCc1cc(=O)[nH]o1	i
COc1ccc(C2c3cccn3-c3ccccc3CN2C(=O)Nc2cc(Cl)ccc2OC)cc1 (stereo unspecified)	i
Cc1nc(-c2ccco2)cc([C@H]2CN3CC[C@H]2C[C@@H]3CNS(C)(=O)=O)n1	i
COc1cccc(NC(=O)N2Cc3ccccc3-n3cccc3C2c2ccc(N(C)C)cc2)c1 (stereo unspecified)	i
CC[C@@H]1C[C@H]2CC[C@H](O2)[C@H](C)C(=O)O[C@@H](C)C[C@@H]2CC[C@@H](O2)[C@@H](C)C(=O)O[C@H](C)C[C@H]2CC[C@H](O2)[C@H](C)C(=O)O[C@@H](C)C[C@@H]2CC[C@@H](O2)[C@@H](C)C(=O)O1	i
O=C(Nc1ccc(Br)cc1F)N1Cc2ccccc2-n2cccc2C1c1cccs1 (stereo unspecified)	i
COc1cccc(CNC(=O)N2Cc3ccccc3-n3cccc3C2c2ccc(Cl)cc2)c1 (stereo unspecified)	i
CN(C)c1ccc(C2c3cccn3-c3ccccc3CN2C(=O)NCc2ccco2)cc1 (stereo unspecified)	i
Cc1ccc([C@H]2C[C@@H](O)[C@@H](O)[C@@H]2NCC(C)C)cc1	i
Cn1ncnc1COc1nn2c(-c3c(F)cccc3F)nnc2cc1C1CCC1	i
Cc1ccc(Cl)cc1NC(=O)N1Cc2ccccc2-n2cccc2C1c1ccc(N(C)C)cc1 (stereo unspecified)	i
CCN1CCN(c2ccc(Cl)nn2)C(=O)C1	i
CCOCCCNC(=O)N1Cc2ccccc2-n2cccc2C1c1ccc(CC)cc1 (stereo unspecified)	i
N#Cc1ccccc1S(=O)(=O)N1C[C@@H]2C[C@H](C1)c1ccc(-c3ccc(Cl)cc3)c(=O)n1C2	i
CC(N)Cc1c[nH]c2ccccc12 (stereo unspecified)	i
COc1ccccc1NC(=O)N1Cc2ccccc2-n2cccc2C1C (stereo unspecified)	i
CCC1NC(=O)C2C(Cl)C(Cl)CN2C(=O)C(C(C)O)NC(=O)CC(c2ccccc2)NC(=O)C(CO)NC1=O (stereo unspecified)	i
CO/C1=C/C(C)=C\[C@@H](C)[C@@H](O)[C@@H](C)C/C(C)=C\C=C/[C@H](OC)[C@@H]([C@@H](C)[C@@H](O)[C@H](C)[C@@]2(O)C[C@@H](O)[C@H](C)[C@@H](C(C)C)O2)OC1=O	?
CC1=NN=C(c2ccc(N)cc2)c2cc3c(cc2C1)OCO3	?
Cc1ccc(C2c3cccn3-c3ccccc3CN2C(=O)Nc2ccc(C)cc2C)cc1 (stereo unspecified)	i
CN1CCC(c2c[nH]c3ccc(O)cc23)CC1	i
CCNC(=O)C[C@@H]1N=C(c2ccc(Cl)cc2)c2cc(OC)ccc2-n2c(C)nnc21	?
c1cncc(OC[C@@H]2CCN2)c1	i
O=C(O)c1nn(Cc2ccc(Cl)cc2Cl)c2ccccc12	i

Gathered by group, the compounds so far containing bromine (2)
SMILES	Methyltransferases
Cc1cc(NC(=O)N2Cc3ccccc3-n3cccc3C2c2cccs2)ccc1Br (stereo unspecified)	i
O=C(Nc1ccc(Br)cc1F)N1Cc2ccccc2-n2cccc2C1c1cccs1 (stereo unspecified)	i

Further results follow.
SMILES	Methyltransferases
CC1=CC2/C=C(\C)CCC(O)C(O)/C=C/C(=O)C23C(=O)NC(CC(C)C)C3C1C (stereo unspecified)	i
CCOC(=O)CC1(NC(=O)N2Cc3ccccc3-n3cccc3C2c2cccs2)CCCCC1 (stereo unspecified)	i
CN(C)c1ccc(C2c3cccn3-c3ccccc3CN2C(=O)Nc2cccc3c2CCCC3)cc1 (stereo unspecified)	i
O=C1NC[C@H]2CN(C3CCOCC3)CCN12	i
O=C(NCc1ccc(F)cc1)N1Cc2ccccc2-n2cccc2C1c1ccc(Cl)cc1 (stereo unspecified)	i
O=C(N[C@H]1CN2CCC1CC2)c1cc2cccc(Cl)c2s1	i
O=C(C[C@@H]1NCCC[C@H]1O)Cn1cnc2ccccc2c1=O	i
COCCCNC(=O)N1Cc2ccccc2-n2cccc2C1c1ccc(SC)cc1 (stereo unspecified)	i
CC(C)C1c2cccn2-c2ccccc2CN1C(=O)Nc1ccccc1C(F)(F)F (stereo unspecified)	i
CN1CCOC[C@H]2CCNC[C@H]21	i
CCOc1ccc(C2c3cccn3-c3ccccc3CN2C(=O)NCCC(=O)OC)cc1 (stereo unspecified)	i
COc1ccc(NC(=O)N2Cc3ccccc3-n3cccc3C2c2cccs2)cc1 (stereo unspecified)	i
C1=C(c2cnc[nH]2)c2ccsc2CC1	i
COc1ccc(NC(=O)N2Cc3ccccc3-n3cccc3C2c2ccc(SC)cc2)cc1OC (stereo unspecified)	i
Cn1cc(C2=C(c3cn(C4CCN(Cc5ccccn5)CC4)c4ccccc34)C(=O)NC2=O)c2ccccc21	?
CCN1CCN(C(=O)Cc2ccc(Nc3ncc(F)c(Nc4ccc(C(=O)Nc5ccccc5Cl)cc4)n3)cc2)CC1	?
O=C(Nc1ccc(F)cc1)N1Cc2ccccc2-n2cccc2C1c1ccccc1 (stereo unspecified)	i
COc1ccc(OC)c(NC(=O)N2Cc3ccccc3-n3cccc3C2c2ccccc2)c1 (stereo unspecified)	i
COc1ccc(NC(=O)N2Cc3ccccc3-n3cccc3C2c2cccc(Cl)c2)c(OC)c1 (stereo unspecified)	i
COC1(C[S@@](=O)c2ccccc2)CCN(CCc2c[nH]c3ccc(F)cc23)CC1	i
COc1ccccc1NC(=O)N1Cc2ccccc2-n2cccc2C1c1ccc(OC)c(OC)c1 (stereo unspecified)	i
COc1ccc(C2c3cccn3-c3ccccc3CN2C(=O)Nc2ccc(F)c(Cl)c2)cc1 (stereo unspecified)	i
CCN1CCCNCC12CCOCC2	i
COc1ccc(C2c3cccn3-c3ccccc3CN2C(=O)Nc2cc(OC)ccc2OC)cc1 (stereo unspecified)	i
Cc1ccc(C)c(NC(=O)N2Cc3ccccc3-n3cccc3C2C)c1 (stereo unspecified)	i
COC(=O)[C@]12CCCC(C)(C)C1CCc1cc(C(C)C)c(O)c(O)c12 (stereo partly specified)	i
CCC1c2cccn2-c2ccccc2CN1C(=O)NCCCOC (stereo unspecified)	i
Cc1cccc(C2c3cccn3-c3ccccc3CN2C(=O)Nc2cccc(Cl)c2)c1 (stereo unspecified)	i
CS(=O)(=O)NC[C@H]1C[C@@H]2CCN1C[C@@H]2CN1CCc2ccccc2C1	i
Cc1ccc(C2c3cccn3-c3ccccc3CN2C(=O)Nc2ccccc2C)cc1 (stereo unspecified)	i
COc1ccc(-c2cc([C@H]3CN4CC[C@H]3C[C@@H]4COC(=O)NC3CCCCC3)nc(C)n2)cc1	i
C[C@@H]1O[C@@H](OC2CCC3(C=O)C(CCC4C3CCC3(C)C(C5=CC(=O)OC5)C(O)CC43O)C2)[C@H](O)[C@H](O)[C@H]1O[C@@H]1O[C@H](CO)[C@@H](O)[C@H](O)[C@H]1O (stereo partly specified)	i
Cc1ccc(C)c(NC(=O)N2Cc3ccccc3-n3cccc3C2C(C)C)c1 (stereo unspecified)	i
Cc1ccccc1-n1c(Cn2cnc3c(N)ncnc32)nc2cccc(C)c2c1=O	i
Cc1ccc(C2c3cccn3-c3ccccc3CN2C(=O)Nc2cccc(Cl)c2)cc1 (stereo unspecified)	i
CCCN(CCC)[C@H]1CCc2c(F)ccc(O)c2C1	i
CCCCN1[C@@H]2CC[C@H]1CC(OC(c1ccc(F)cc1)c1ccc(F)cc1)C2 (stereo partly specified)	+
O=C(NCc1ccc(F)cc1)N1Cc2ccccc2-n2cccc2C1c1cc(F)cc(F)c1 (stereo unspecified)	i
CCOC(=O)CNC(=O)N1Cc2ccccc2-n2cccc2C1c1cccc(Cl)c1 (stereo unspecified)	i
Cc1ccc(NC(=O)N2Cc3ccccc3-n3cccc3C2C)c(Cl)c1 (stereo unspecified)	i
O=C(NC1CCCCC1)OC[C@H]1C[C@@H]2CCN1C[C@@H]2c1cc(C2CCCC2)nc(-c2ccncc2)n1	?
COc1ccc(NC(=O)N2Cc3ccccc3-n3cccc3C2c2ccc(C)cc2)c(OC)c1 (stereo unspecified)	i
CC1C/C=C/C(O)C(O)CC/C=C/c2cc(O)cc(O)c2C(=O)O1 (stereo unspecified)	i
CC1c2cccn2-c2ccccc2CN1C(=O)NC1CCCC1 (stereo unspecified)	i
COCCCNC(=O)N1Cc2ccccc2-n2cccc2C1c1ccc(OC)cc1 (stereo unspecified)	i
CN1CCN(c2nc3ccccc3nc2Cl)CC1	i
Cc1ccc(CNC(=O)N2Cc3ccccc3-n3cccc3C2c2ccccc2)cc1 (stereo unspecified)	i
CCn1cnc2c(Nc3cccc(Cl)c3)nc(N[C@@H]3CCCC[C@@H]3N)nc21	i
CCOCCCNC(=O)N1Cc2ccccc2-n2cccc2C1c1cc(F)cc(F)c1 (stereo unspecified)	i
COc1cccc(NC(=O)N2Cc3ccccc3-n3cccc3C2c2ccc(SC)cc2)c1 (stereo unspecified)	i
CSc1ccc(C2c3cccn3-c3ccccc3CN2C(=O)Nc2ccc(C)cc2Cl)cc1 (stereo unspecified)	i
COC1CC(O[C@H]2CC[C@]3(C)C4CC[C@]5(C)[C@@H](C6=CC(=O)OC6)[C@@H](OC(C)=O)C[C@]5(O)C4CC[C@@H]3C2)OC(C)C1O (stereo partly specified)	i
CN(C(=O)Cc1ccccc1)[C@H](CN1CCCC1)c1ccccc1	?
CN(CCc1ccccn1)C[C@H]1CN2CC[C@H]1C[C@@H]2CNC(=O)c1ccco1	i
Cc1cccc(C2c3cccn3-c3ccccc3CN2C(=O)Nc2cccc(Br)c2)c1 (stereo unspecified)	i
c1ccc2c(c1)OCC(C1=NCCN1)O2 (stereo unspecified)	i
N#CC(OC1OC(COC2OC(CO)C(O)C(O)C2O)C(O)C(O)C1O)c1ccccc1 (stereo unspecified)	?
COc1cccc(NC(=O)N2Cc3ccccc3-n3cccc3C2c2cccs2)c1 (stereo unspecified)	i
Cc1ccc(NC(=O)N2Cc3ccccc3-n3cccc3C2c2cccs2)cc1C (stereo unspecified)	i
CCS(=O)(=O)Nc1cccc(C(=C2CCCCC2)c2cnc[nH]2)c1	i

Some of the entries above, reformatted.
SMILES | Methyltransferases
N#CC(OC1OC(COC2OC(CO)C(O)C(O)C2O)C(O)C(O)C1O)c1ccccc1 (stereo unspecified) | ?
COc1cccc(NC(=O)N2Cc3ccccc3-n3cccc3C2c2cccs2)c1 (stereo unspecified) | i
Cc1ccc(NC(=O)N2Cc3ccccc3-n3cccc3C2c2cccs2)cc1C (stereo unspecified) | i
CCS(=O)(=O)Nc1cccc(C(=C2CCCCC2)c2cnc[nH]2)c1 | i

A different layout for part of the listing above:
SMILES | Methyltransferases
COc1cccc(NC(=O)N2Cc3ccccc3-n3cccc3C2c2ccc(SC)cc2)c1 (stereo unspecified) | i
CSc1ccc(C2c3cccn3-c3ccccc3CN2C(=O)Nc2ccc(C)cc2Cl)cc1 (stereo unspecified) | i
COC1CC(O[C@H]2CC[C@]3(C)C4CC[C@]5(C)[C@@H](C6=CC(=O)OC6)[C@@H](OC(C)=O)C[C@]5(O)C4CC[C@@H]3C2)OC(C)C1O (stereo partly specified) | i
CN(C(=O)Cc1ccccc1)[C@H](CN1CCCC1)c1ccccc1 | ?
CN(CCc1ccccn1)C[C@H]1CN2CC[C@H]1C[C@@H]2CNC(=O)c1ccco1 | i

The list goes on.
SMILES	Methyltransferases
O=C(NC1CCCC1)N1Cc2ccccc2-n2cccc2C1c1ccc(Cl)cc1 (stereo unspecified)	i
Cc1ccc(C2c3cccn3-c3ccccc3CN2C(=O)NCCc2ccccc2)cc1 (stereo unspecified)	i
Cc1cc(C)cc(NC(=O)N2Cc3ccccc3-n3cccc3C2c2ccccc2)c1 (stereo unspecified)	i
CCOc1ccc(C2c3cccn3-c3ccccc3CN2C(=O)Nc2ccc(C)c(C)c2)cc1 (stereo unspecified)	i
Cc1ccc(CNC(=O)N2Cc3ccccc3-n3cccc3C2C)cc1 (stereo unspecified)	i
COC(=O)C12C(=O)C(C)(O)C(=O)C1(C)C(C)=CC1C3(C=O)CCC(OC(C)=O)C(C)(C)C3CCC12C (stereo unspecified)	i
N[C@H]1[C@H](O)[C@@H](N2CCCCC2)[C@@H]2OC[C@H]1O2	i
C/C=C/CN1CC2ON=C(C(=O)O)C2C1 (stereo unspecified)	i
CCCCc1ccc(C(=O)O)nc1	i
Cc1cccc(C2c3cccn3-c3ccccc3CN2C(=O)NCc2ccccc2)c1 (stereo unspecified)	i
CCOCCCNC(=O)N1Cc2ccccc2-n2cccc2C1c1ccc(C(C)C)cc1 (stereo unspecified)	i
